# Bioassay records: PubChem BioAssay, National Center for Advancing Translational Sciences (NCATS)
# Menin-MLL FL inh = qHTS Assay for Inhibitors Targeting the Menin-MLL Interaction in MLL Related Leukemias: Competition With Fluorescein Labeled MLL-derived Peptide | FP activity change, % at 61.4 µM | AID 1766, 2009 | Fluorescence polarization, fluorescein-MLL peptide displacement from menin | 290,000 tested, under 10 active; inconclusive = falling polarisation curve, or a change in total fluorescence; inactive = total fluorescence flat and polarisation flat or rising; no compound was filed as active; the % refers to the polarisation; negative = inhibition;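 note: % of control where 0% means no effect; inhibitors lower the polarisation; unlabelled MLL peptide was the positive control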
# gsp agonist = qHTS for Agonist of gsp, the Etiologic Mutation Responsible for Fibrous Dysplasia/McCune-Albright Syndrome: qHTS; gsp mutant cells, cAMP HTRF, 30 min; control for the full effect not named in the record; Potency, µM (highest dose often 76.9 µM), inactives show top-dose activation (cAMP increase), actives largely listed as activators; actives 0.13% (n = 340,000); active = well fitted activation curve with a large enough effect; inconclusive = small, poorly fitted or top-dose-only effect, or another doubt; inactive = no such curve, though single readings can be large or run the other way; cell line not stated here;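 note: phosphodiesterase inhibitor Ro 20-1724 added with compounds to block cAMP breakdown; potency is the fitted concentration of half-maximal effect; nearly all actives have a fitted effect of over 60% in size; about a fifth of the inactives were tested at one dose only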
#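 Cells stably selected in G418 were plated at 2000/well, grown 16-24 hr, then given compounds in DMSO with the PDE inhibitor […] (300 uM solution added) for 30 min at 37C; cAMP was read by HTRF.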
# gsp antag = qHTS for Antagonists of gsp, the Etiologic Mutation Responsible for Fibrous Dysplasia/McCune-Albright Syndrome: qHTS. gsp-mutant cells, cAMP HTRF, 30 min; control for the full effect not named in the record. Potency, µM (titrated, usually from 76.9 µM), for inactives: at the top dose activity change, negative = inhibition, most hits filed as inhibitors. actives 0.4% (n = 340,000). AID 624288, 2012; active = falling curve of any shape with a large fitted effect; inconclusive = falling curve, mostly with a smaller effect; inactive = flat or rising curve; cell line not stated here;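 note: intracellular cAMP measured with PDE inhibitor Ro 20-1724 present during compound exposure; potency is the fitted concentration of half-maximal effect; % is set by controls: 0 for no effect and ±100 for the full control effect; nearly all actives have a fitted effect of over 65% in size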
#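 HTRF cAMP measurement after 30 min RT detection following 30 min, 37C compound treatment alongside […] (added as 300 uM solution) in G418-selected cells seeded at 2000/well and grown 16–24 h.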
# TRPML1 inh = qHTS for Inhibitors of the Human Mucolipin Transient Receptor Potential 1 (TRPML1). actives 0.02% (n = 390,000). TRPML1-inducible cells, Ca2+ dye fluorescence, FDSS; active compounds read low; inhibition of EC80 agonist-evoked calcium signal. activity change, negative = inhibition, % (test concentration not listed); in the data active means activity change below about -50%; inconclusive means about -30% to -50%; inactive means above about -30%;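 note: stimulus is agonist 54-4 at its EC80 concentration; % is set by controls: 0 for no effect and ±100 for the full control effect; compound concentration not given in the record; the text of the record puts the active cut at -80%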
# Target sequence (Q9GZU1 whole entry, looked up): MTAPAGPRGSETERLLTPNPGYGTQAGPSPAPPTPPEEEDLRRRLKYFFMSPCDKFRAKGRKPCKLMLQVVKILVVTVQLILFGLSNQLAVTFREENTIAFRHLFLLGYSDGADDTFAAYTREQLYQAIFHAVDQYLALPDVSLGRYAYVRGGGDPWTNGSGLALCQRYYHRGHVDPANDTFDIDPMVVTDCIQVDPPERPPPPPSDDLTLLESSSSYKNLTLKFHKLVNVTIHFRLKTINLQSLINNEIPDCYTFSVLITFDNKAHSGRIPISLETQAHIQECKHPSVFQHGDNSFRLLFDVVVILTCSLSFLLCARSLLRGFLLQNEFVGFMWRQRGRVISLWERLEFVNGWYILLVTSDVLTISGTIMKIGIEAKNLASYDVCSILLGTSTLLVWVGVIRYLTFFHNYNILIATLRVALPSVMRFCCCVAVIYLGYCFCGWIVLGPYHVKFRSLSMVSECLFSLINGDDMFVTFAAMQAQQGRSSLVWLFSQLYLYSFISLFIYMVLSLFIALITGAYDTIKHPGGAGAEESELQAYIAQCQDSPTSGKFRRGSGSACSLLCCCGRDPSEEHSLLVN
#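 Tet-induced TRPML1-DL cells loaded with Ca8 no-wash calcium dye were read kinetically on FDSS. Compound addition was followed by EC80 agonist 54-4 (4 uM final); inhibition was read over 110 s.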
# TRPML1 ag = qHTS for Agonists of the Human Mucolipin Transient Receptor Potential 1 (TRPML1). TRPML1-expressing cells, Ca2+ dye fluorescence, FDSS; host cell line not named in the record; reference of the full effect not given here. activation, % (no concentration beside the values). actives 0.12% (n = 410,000). AID 624414, 2012; in the data active = activation above about 50%; inconclusive = about 30% to 50%; inactive = below about 30%; note: 0% is about no effect; the text of the record puts the active cut at 80%
#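 Cells: TRPML1-DL, 1X Tet inducer, ~16 h at 37 degrees C/5% CO2. Dye: ABD Ca8 no-wash + quencher, 45-90 min RT. Read: 10 s baseline, compound add, 110 s agonist phase; 54-4 EC80 (4uM final), 110 s antagonist phase.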
# ClpP mod = qHTS Assay for Activators of ClpP | ATP-dependent Clp protease proteolytic subunit (Bacillus subtilis (strain 168)), P80244 | purified B. subtilis ClpP, FRET peptide cleavage, 20 min | Potency, µM (doses to about 57.5 µM), for inactives: top-dose activity change, negative = active | actives 1.9% (n = 340,000) | AID 651965, 2013; active = well fitted falling curve with a large enough effect; inconclusive = small, poorly fitted or top-dose-only effect; inactive = no such curve, though single readings can be large or run the other way; note: potency is the fitted concentration of half-maximal effect; the source files actives as falling curves though it sought activators and does not explain the sign; nearly all actives have a fitted effect of over 65% in size; many hits overshoot -100%
# Target sequence (P80244 whole entry, looked up): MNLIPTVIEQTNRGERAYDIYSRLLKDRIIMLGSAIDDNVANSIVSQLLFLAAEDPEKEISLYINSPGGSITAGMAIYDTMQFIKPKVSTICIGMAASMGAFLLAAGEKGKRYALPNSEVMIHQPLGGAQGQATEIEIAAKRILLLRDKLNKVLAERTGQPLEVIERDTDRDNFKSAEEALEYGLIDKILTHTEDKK
#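 FRET quenching reversal measured ClpP activation: 10 microg/mL B. subtilis ClpP at pH 8 with the FRET-FV decapeptide, read at 430 nm after 320 nm excitation. The 20-min minus 0-min signal was scaled between DMSO/no-enzyme wells and ADEP (5.8 microM final).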
# Starred values were filed as active, the others as inactive; ? = inconclusive; . = not tested or not shown; [ ] = remark or other dose. Random draw from the library. About 2.1% of those tested had a hit in this group.
cpd	Structure	Menin-MLL FL inh	gsp agonist	gsp antag
1	O=C(Nc1nnc(C2CC2)o1)c1ccc(S(=O)(=O)N2CCCc3ccccc32)cc1	4.7	0%	-14%
2	COC(=O)c1cc(Br)ccc1NC(=O)Nc1ccccc1	8.6	10%[15.4 µM]	1%
3	O=C(O)c1cc(CN2CCOCC2)oc1-c1ccccc1	2.2	-2%	-4%
4	CCOc1ccc(-c2cccc(NS(=O)(=O)c3ccccc3C(F)(F)F)c2)nn1	.	.	.
5	O=C(c1ccc2c(c1)OCO2)N1CCC2(CC1)Oc1ccc(F)cc1C(=O)C21CC(c2ccccc2)=NO1 (stereo unspecified)	0.1	15%	-14%
6	Cc1cccc(N(Cc2ccccc2)C(=O)C2CCN(C(=O)c3ccccc3C)CC2)c1	.	-48%[inhibitor]	-10%
7	CC1CCCCC12NC(=O)N(CC(=O)Nc1ccc(S(=O)(=O)Nc3ncccn3)cc1)C2=O (stereo unspecified)	.	19%	10%
8	CCCCn1c(CNC(=O)C23CC4CC(CC(C4)C2)C3)nnc1SCC(=O)Nc1ccc(C)cc1	.	.	.
9	COC(=O)/C=C1\N/C(=N\c2nc(C)cc(C)n2)N(c2ccccc2)C1=O	8.5	-1%[15.4 µM]	-1%
10	CSc1nc(C)cc(C)c1S(=O)(=O)c1ccccc1C	3.9	-7%	-4%[15.4 µM]
11	Cc1cccc(Sc2c(C=O)c3ccccc3n2C)c1	2.9	?	-7%
12	O=C(Cn1cnc2c(oc3nc4c(cc32)CCCC4)c1=O)Nc1cccc(Cl)c1	.	-29%[15.4 µM]	-1%

cpd	TRPML1 inh	TRPML1 ag	ClpP mod
1	9	-1.0	-0.2%
2	34	-0.7	0.2%
3	-2	3.4	-13%
4	0	1.4	1.6%
5	-3	1.0	-3.5%
6	-4	1.0	-3.4%
7	-7	-1.3	-2.1%
8	-12	-0.2	-0.9%
9	15	-0.4	-1.7%
10	14	3.7	-7.0%
11	-8	0.9	-0.9%
12	-1	-0.4	.

# The list continues.
cpd	Structure	Menin-MLL FL inh	gsp agonist	gsp antag
13	C=CCNC(=O)c1ccc(S(=O)(=O)CC)c(Cl)c1Cl	-0.2	-18%	-2%
14	COc1ccc(S(=O)(=O)N2CCN(Cc3cc(OC)c(OC)cc3OC)CC2)cc1	2.0	18%	-6%
15	C=CCSc1nc(N)c(C#N)c(-c2ccc(C)cc2)c1C#N	-0.3	-20%	4%
16	Cc1ccc(-c2nonc2NC(=O)c2ccc(F)cc2)cc1C	.	.	.
17	O=C(CN1C(=O)c2ccccc2C1=O)Nc1ccc(N2CCOCC2)cc1	3.1	20%	3%
18	CCN(CC)S(=O)(=O)c1cccc(N=Nc2sc(N)nc2C)c1	1.7	-15%	5%
19	O=C(CCCN1C(=O)/C(=C/c2ccco2)SC1=S)Nc1ccccc1	?	0%	4%
20	COc1cccc(C(=O)N2CCN(C3CCCCC3)CC2)c1	-1.7	-2%	4%
21	CCCCC(=O)Nc1ccc(C(=O)NCCc2ccccc2)cc1	-0.9	9%[15.4 µM]	3%
22	COc1ccc(OCc2ccc(-c3nc(C#N)c(NCc4cccnc4)o3)o2)cc1	.	.	.
23	C/C(=N\NC(=O)c1c(Br)c(C)nn1C)c1ccc(NC(=O)C(C)Oc2ccc(Cl)cc2C)cc1 (stereo unspecified)	-0.2	9%	-1%
24	O=C(C1=C(O)C(=O)N(CCN2CCOCC2)C1c1ccncc1)c1ccco1 (stereo unspecified)	-0.3	-25%	6%

cpd	TRPML1 inh	TRPML1 ag	ClpP mod
13	2	-0.6	-1.2%
14	-23	0.2	0.6%
15	9	1.3	-21%
16	-13	2.7	0.0%
17	-1	-0.4	-0.1%
18	23	-0.9	-3.9%
19	-15	0.6	3.8%
20	0	0.8	.
21	24	-0.2	-2.4%
22	10	0.2	?
23	7	0.7	-27%
24	-6	-0.2	0.8%

# Next records follow.
cpd	Structure	Menin-MLL FL inh	gsp agonist	gsp antag
25	COc1ccccc1N1CCN(C(=O)C(Sc2ccccc2)c2ccccc2)CC1 (stereo unspecified)	-0.1	?	-15%
26	COc1ccc(NC(=O)N[C@@H](Cc2ccccc2)C(=O)NN)cc1	1.2	-4%[15.4 µM]	-32%
27	Cc1ccccc1CNC(=O)c1ccccc1SCC(=O)NCc1ccco1	.	-11%[15.4 µM]	2%
28	CCOC(=O)c1cccc(NC(=O)CSc2nc3cc4ccccc4cc3[nH]2)c1	.	.	.
29	CCOC(=O)c1c(NC(=O)Nc2cccc(Cl)c2)sc(C)c1C	-1.3	15%	-5%
30	Cc1cccc(-c2n[nH]c(=S)n2/N=C/c2ccc(C)o2)c1	.	-20%	-4%
31	C=CCSc1ncccc1C(=O)O	1.5	-26%	-5%
32	COc1ccc(S(=O)(=O)NCCSc2ccc(Cl)cc2)cc1OC	0.8	22%	?
33	Cc1n[nH]c(=O)c2c(NC(=O)COC(=O)COc3cccc(Br)c3)oc(C)c12	.	-1%	4%
34	COc1ccc(-c2cnc(C)o2)cc1S(=O)(=O)Nc1cccc(C(F)(F)F)c1	.	.	.
35	COc1ccc(C(=O)O/N=C(\N)Cc2ccc(Cl)c(Cl)c2)cc1OC	-1.4	-8%	-8%
36	CCCn1c(N)c(C(=O)CSc2nc3ncc(Cl)cc3[nH]2)c(=O)n(C)c1=O	.	8%	-16%

cpd	TRPML1 inh	TRPML1 ag	ClpP mod
25	19	0.7	0.5%
26	-10	1.4	0.1%
27	-1	0.4	.
28	80	0.7	3.8%
29	6	0.3	-7.3%
30	17	1.4	0.4%
31	0	1.9	-1.9%
32	11	1.6	-0.9%
33	-3	0.4	4.0%
34	13	-1.3	-1.2%
35	-3	0.1	-0.3%
36	25	-0.1	0.5%

# Entries of single compounds as entered above:
# C=CCSc1nc(N)c(C#N)c(-c2ccc(C)cc2)c1C#N in the list: Menin-MLL FL inh = -0.3; gsp agonist = -20%; gsp antag = 4%; TRPML1 inh = 9; TRPML1 ag = 1.3; ClpP mod = -21%
# COc1ccc(-c2cnc(C)o2)cc1S(=O)(=O)Nc1cccc(C(F)(F)F)c1 in the list: Menin-MLL FL inh = .; gsp agonist = .; gsp antag = .; TRPML1 inh = 13; TRPML1 ag = -1.3; ClpP mod = -1.2%

# Compounds shown so far that contain a COOH group (two):
cpd	Structure	Menin-MLL FL inh	gsp agonist	gsp antag
3	O=C(O)c1cc(CN2CCOCC2)oc1-c1ccccc1	2.2	-2%	-4%
31	C=CCSc1ncccc1C(=O)O	1.5	-26%	-5%

cpd	TRPML1 inh	TRPML1 ag	ClpP mod
3	-2	3.4	-13%
31	0	1.9	-1.9%

# New compounds follow:
cpd	Structure	Menin-MLL FL inh	gsp agonist	gsp antag
37	CCOc1ccc(C2NC(=O)c3c(COC)cc(C)nc3N2Cc2ccccc2)cc1OC (stereo unspecified)	.	.	.
38	O=C(Nc1ccc(NC(=O)c2cccc([N+](=O)[O-])c2)cc1)c1cccc([N+](=O)[O-])c1	9.1	14%	0%
39	CC(C)N(C(=O)CSc1nnc(CN2CCCCCC2=O)n1-c1ccccn1)C(C)C	3.8	8%	-1%
40	CSc1ccc(/C=C(/Sc2nnc(-c3ccccc3)o2)C(=O)O)cc1	-1.5	8%[15.4 µM]	-15%
41	Cc1csc(NC(=O)CSc2ccc(-c3ccc(F)cc3)nn2)n1	5.5	0%[15.4 µM]	-24%
42	Cc1ccc(C2(c3ccc(C)cc3)NC(=O)N(CC(N)=O)C2=O)cc1	.	29%[15.4 µM]	16%
43	C/C(CC(=O)Nc1ccc2c(c1)OCCO2)=N\NC(=O)C(=O)Nc1ccccc1C	24	-35%[inhibitor]	9%
44	CCCC(=O)NC(c1ccc(C(C)C)cc1)c1ccc2cccnc2c1O (stereo unspecified)	-0.2	30%	-3%
45	CCCn1c(SCC(=O)c2cc(OC)ccc2OC)nnc1C(C)C	-5.4	-20%	15%
46	Cc1ccc(Sc2nnc(-c3ccccc3)cc2C#N)cc1	1.3	-21%	4%[15.4 µM]
47	COc1ccc(-n2nc3c(N4CCC(C(=O)NCC(C)c5ccccc5)CC4)nnc(C)c3c2C)cc1 (stereo unspecified)	9.2	?	-15%
48	CCc1ccc(NC(=O)CCS(=O)(=O)c2ccc(Cl)cc2)cc1	-13	-9%	-5%

cpd	TRPML1 inh	TRPML1 ag	ClpP mod
37	-4	-0.2	3.8%
38	-7	3.4	-1.6%
39	15	0.0	-2.3%
40	17	0.1	.
41	16	0.5	-4.9%
42	-10	0.3	.
43	4	1.1	-0.2%
44	-4	0.1	.
45	-7	-0.3	13%
46	12	0.6	-3.8%
47	32	4.0	3.5%
48	4	1.1	-0.1%

# (cont.)
cpd	Structure	Menin-MLL FL inh	gsp agonist	gsp antag
49	CCCCCn1cc2c(c1-c1ccc(Cl)cc1)c(=O)n(C)c(=O)n2C	.	.	.
50	Cc1ccc(NC(=O)COc2nc(C)cs2)cc1	-1.9	12%	4%
51	CCn1c(=O)c(C(=O)NC(C)C)c(O)c2ccccc21	1.1	-32%[inhibitor]	4%
52	C=CCO/N=C(/CCC)C1=C(N)CC(C)(C)CC1=O	-0.2	24%	5%
53	CCOC(=O)N1CCN(c2c(NCc3ccccc3Cl)c(=O)c2=O)CC1	-1.0	9%	0%
54	CN(C)c1ccc(-c2nnc(-c3cccs3)o2)cc1	0.0	?	3%
55	Cc1[nH]c2ccccc2c1C(=O)C(C)OC(=O)c1ccc(Cl)nc1 (stereo unspecified)	.	-3%[15.4 µM]	1%
56	Cn1cc(CN2CCC(CO)(CCCc3ccccc3)CC2)c(-c2ccccc2)n1	2.8	-5%	11%
57	CCCn1c(NCc2ccco2)nc2ccccc21	-0.1	1%	2%

cpd	TRPML1 inh	TRPML1 ag	ClpP mod
49	0	-0.4	10µM*
50	-6	0.0	-1.9%
51	1	0.7	-7.5%
52	-9	2.1	.
53	-5	-0.9	0.6%
54	-4	2.4	4.3%
55	5	-0.6	0.1%
56	16	-0.1	0.4%
57	7	-0.3	-0.4%
